# HIV Env fusion: blocks HIV Env-driven cell-cell fusion; hit rate 1.1% among 360,000; inhibition, % at 12.3 µM; HeLa-JRFL Env/CEM21 cell fusion, luciferase; AID 651610;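 active = mean replicate inhibition score of at least 50 and every replicate individually at or above 50; inconclusive = only one of the two criteria met; inactive = mean below 50 and not all replicates reaching 50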;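 note: 0% = plate neutral controls and 100% = maraviroc near 300 nM; one replicate is shown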
# Numbers without * were called inactive; ? = inconclusive; & = joins results of further samples; [ ] = dose if it differs, or a comment. An excerpt, so the mix of outcomes need not match the whole.
cpd	canonical_smiles	HIV Env fusion
1	C[C@@H](NC(=O)C[C@H]1CC[C@H]2[C@H](COc3ccc(NS(=O)(=O)c4ccc(Cl)cc4)cc3C(=O)N2C)O1)c1ccccc1	29[16.7 µM]
2	O=C(O)[C@H]1[C@H](CO)[C@H]2Cn3c(ccc(/C=C/c4ccccc4)c3=O)[C@H]2N1C(=O)C1CCCC1	-24[16.7 µM]
3	O=C(Nc1ccc2c(c1)[C@@H]1C[C@H](CC(=O)N3CCOCC3)O[C@H](CO)[C@@H]1O2)Nc1ccccc1F	-75[16.7 µM]
4	CCCCCCCCN1C(=O)[C@@H](CC(=O)NCc2cccs2)C[C@@]2(C(=O)OC)C1=C[C@H](C1CCCC1)O[C@@H]2C	45
5	CNC[C@H]1Oc2c(NS(=O)(=O)c3ccc(OC)cc3)cccc2C(=O)N([C@@H](C)CO)C[C@H]1C	-17[16.7 µM]
6	C[C@H](CO)N1C[C@H](C)[C@@H](CN(C)S(=O)(=O)c2ccc(C(F)(F)F)cc2)OCc2ccccc2-c2ccccc2C1=O	42[16.7 µM]
7	CO[C@H]1CN(C)C(=O)c2cc(NS(=O)(=O)c3cn(C)cn3)ccc2OC[C@@H](C)N(CC2CC2)C[C@H]1C	-8[16.7 µM]
8	C[C@H]1CN([C@@H](C)CO)C(=O)c2cc(NC(=O)Cc3ccccc3)ccc2O[C@@H]1CN(C)Cc1ccc2c(c1)OCO2	-11[16.7 µM]
9	C[C@H](CO)N1C[C@H](C)[C@H](CN(C)CC2CC2)OCCCC[C@H](C)Oc2ccc(NS(=O)(=O)c3ccc(F)cc3)cc2C1=O	-12[16.7 µM]
10	COc1ccc(S(=O)(=O)Nc2cccc3c2O[C@@H](CN(C)C(=O)Nc2cccc4ccccc24)[C@@H](C)CN([C@H](C)CO)C3=O)cc1	?

# Shown as labelled records: part of the list above
1. C[C@@H](NC(=O)C[C@H]1CC[C@H]2[C@H](COc3ccc(NS(=O)(=O)c4ccc(Cl)cc4)cc3C(=O)N2C)O1)c1ccccc1
  HIV Env fusion: 29[16.7 µM]

4. CCCCCCCCN1C(=O)[C@@H](CC(=O)NCc2cccs2)C[C@@]2(C(=O)OC)C1=C[C@H](C1CCCC1)O[C@@H]2C
  HIV Env fusion: 45

8. C[C@H]1CN([C@@H](C)CO)C(=O)c2cc(NC(=O)Cc3ccccc3)ccc2O[C@@H]1CN(C)Cc1ccc2c(c1)OCO2
  HIV Env fusion: -11[16.7 µM]

7. CO[C@H]1CN(C)C(=O)c2cc(NS(=O)(=O)c3cn(C)cn3)ccc2OC[C@@H](C)N(CC2CC2)C[C@H]1C
  HIV Env fusion: -8[16.7 µM]

# Carrying on.
cpd	canonical_smiles	HIV Env fusion
11	O=C(C(=O)N1CCN(C(=O)C2CCCC2)CC1)c1cccc(C(F)(F)F)c1	28
12	C[C@@H]1CN([C@H](C)CO)C(=O)c2cc(NS(=O)(=O)c3cccs3)ccc2O[C@@H]1CN(C)S(=O)(=O)c1cccs1	-31[16.7 µM]
13	CCC(=O)Nc1ccc2c(c1)OC[C@H](C)N(CCc1ccccc1)C[C@@H](C)[C@@H](OC)CN(C)C2=O	-1[16.7 µM]
14	Cc1noc(C)c1NC(=O)N(C)C[C@H]1OCc2ccccc2-c2ccccc2C(=O)N([C@@H](C)CO)C[C@@H]1C	-9[16.7 µM]
15	CO[C@@H]1CN(C)C(=O)c2ccc(NC(C)=O)cc2OC[C@H](C)N(C(=O)c2ccccc2F)C[C@@H]1C	-7[16.7 µM]
16	CCCNC(=O)N[C@H]1CC[C@@H](CCn2cc(-c3cccc(F)c3)nn2)O[C@H]1CO	-17[16.7 µM]
17	Cc1cc(N2CCN(CC(C)(C)O)C[C@H]2C)ccc1N1CCN(CC(C)(C)O)[C@H](C)C1	8
18	C[C@@H]1CCCCO[C@@H](CN(C)C(=O)Nc2cccc3ccccc23)[C@@H](C)CN([C@@H](C)CO)C(=O)c2cc(NC(=O)Nc3ccc(C(F)(F)F)cc3)ccc2O1	-4[16.7 µM]
19	C[C@H]1CN([C@@H](C)CO)C(=O)Cc2cc(NC(=O)Cc3ccccc3)ccc2O[C@H]1CN(C)Cc1ccc(C(F)(F)F)cc1	0[16.7 µM]
20	O=C(C(=O)N1CCN(S(=O)(=O)c2ccc(OC(F)(F)F)cc2)CC1)c1cccc(C(F)(F)F)c1	-7

# Arranged by the number under HIV Env fusion (highest first): three of the compounds above
cpd	canonical_smiles	HIV Env fusion
4	CCCCCCCCN1C(=O)[C@@H](CC(=O)NCc2cccs2)C[C@@]2(C(=O)OC)C1=C[C@H](C1CCCC1)O[C@@H]2C	45
17	Cc1cc(N2CCN(CC(C)(C)O)C[C@H]2C)ccc1N1CCN(CC(C)(C)O)[C@H](C)C1	8
20	O=C(C(=O)N1CCN(S(=O)(=O)c2ccc(OC(F)(F)F)cc2)CC1)c1cccc(C(F)(F)F)c1	-7

# More results.
cpd	canonical_smiles	HIV Env fusion
21	CCC(=O)N1C[C@H](O)COC[C@H]2O[C@H](CC(=O)NCc3cc(F)cc(F)c3)CC[C@@H]21	1[16.7 µM]
22	COc1ccc(NC(=O)N(C)C[C@H]2Oc3ccc(NS(=O)(=O)c4ccc(C)cc4)cc3C(=O)N([C@@H](C)CO)C[C@@H]2C)cc1	2[16.7 µM]
23	C=CCCC1CN(Cc2ccc(OC)cc2)S(=O)(=O)c2c(Oc3ccc(C(C)C)cc3)cccc2O1 (stereo not given)	36&22
24	C[C@H](O)[C@@H]1C(=O)N2CCc3c([nH]c4cccc(-c5ccccc5)c34)[C@@H]2C[C@@H]1N(C)C(=O)C1CCCCC1	22
25	COC(=O)[C@]12C[C@H](CC(=O)NCCCCc3ccccc3)C(=O)N(Cc3ccc4c(c3)OCO4)C1=C[C@H](COCc1ccccc1)O[C@@H]2C	-2
26	CO[C@@H]1CN(C)C(=O)c2cc(C#N)ccc2OCC[C@@H]2CC[C@@H](OC)[C@@H](CN(C)C(=O)[C@H]1C)O2	-2[16.7 µM]
27	C[C@@H]1CN([C@@H](C)CO)C(=O)c2ccccc2-c2ccccc2CO[C@H]1CN(C)Cc1cccc(C(=O)O)c1	-10[16.7 µM]
28	O=C(C[C@@H]1C[C@H]2c3cc(NC(=O)c4ccc5c(c4)OCO5)ccc3O[C@H]2[C@H](CO)O1)NCC(F)(F)F	-10[16.7 µM]
29	COC(=O)C[C@H]1CC[C@H](NS(=O)(=O)c2ccccc2F)[C@@H](CO)O1	-7[16.7 µM]
30	CC(C)NC(=O)N(C)C[C@@H]1OCCCC[C@H](C)Oc2ccc(NC(=O)Nc3ccccc3)cc2C(=O)N([C@@H](C)CO)C[C@H]1C	16[16.7 µM]

# Individual results from the results shown:
# HIV Env fusion, no. 26 = -2[16.7 µM]
# HIV Env fusion, no. 23 = 36&22
# HIV Env fusion, no. 24 = 22

# (continued)
cpd	canonical_smiles	HIV Env fusion
31	Cc1noc(C)c1C(=O)N(C)C[C@@H]1OCc2ccccc2-c2c(n(C)c3ccccc23)C(=O)N([C@@H](C)CO)C[C@H]1C	-28[16.7 µM]
32	CC(C)NC(=O)N(C)C[C@@H]1OCCCC[C@H](C)Oc2ccc(N(C)C)cc2C(=O)N([C@H](C)CO)C[C@H]1C	-3[16.7 µM]
33	CCCCCCCCN1C(=O)[C@@H](CC(=O)NCc2cccs2)C[C@@]2(C(=O)OC)C1=C[C@H](C(C)(C)C)O[C@@H]2C	?
34	C[C@H]1CN([C@@H](C)CO)C(=O)CCCn2cc(nn2)CO[C@H]1CN(C)Cc1ccc2c(c1)OCCO2	6[16.7 µM]
35	Cc1ccc(S(=O)(=O)Nc2ccc3c(c2)C(=O)N([C@H](C)CO)C[C@@H](C)[C@@H](CN(C)C)OCCCC[C@@H](C)O3)cc1	-11[16.7 µM]
36	COc1ccccc1S(=O)(=O)Nc1ccc2c(c1)C(=O)N(C)C[C@H](OC)[C@@H](C)CN[C@@H](C)CO2	-1[16.7 µM]
37	COC(=O)Cc1c([C@H](C)[C@@H](OC)c2ccccc2Br)nnn1Cc1ccccc1	-12
38	CO[C@@H]1CC[C@H]2CCOc3c(C#N)cccc3C(=O)N(C)CCCC(=O)N(C)C[C@H]1O2	5[16.7 µM]
39	C[C@@H]1CN([C@@H](C)CO)C(=O)CCCn2cc(nn2)CO[C@H]1CN(C)Cc1ccccc1C(F)(F)F	-5[16.7 µM]
40	CCC(=O)Nc1ccc2c(c1)OC[C@@H](C)N(C(=O)c1ccc(F)cc1)C[C@@H](C)[C@@H](OC)CN(C)C2=O	-4[16.7 µM]

# More records
item	SMILES	HIV Env fusion
41	COc1cc2c(cc1OC)[C@](C)(c1ccccc1)C[C@@H]2NCC=C(C)C	44
42	CN1c2ccc(-c3ccccc3)cc2[C@@H]2[C@@H](CCN2C(=O)NC2CCCCC2)[C@@H]1CO	9[16.7 µM]
43	O=C(C[C@@H]1C[C@@H]2c3cc(NC(=O)Nc4ccccc4F)ccc3O[C@@H]2[C@@H](CO)O1)NC1CCCCC1	17[16.7 µM]
44	Cc1ccc(S(=O)(=O)N2CCCc3nc(-c4ccc(F)cc4)ccc32)cc1	-31
45	Cc1noc(C)c1S(=O)(=O)Nc1ccc2c(c1)C(=O)N([C@@H](C)CO)C[C@H](C)[C@H](CN(C)S(=O)(=O)c1cccs1)OCCCC[C@@H](C)O2	-6[16.7 µM]
46	CCCN1[C@@H]2Cn3c(ccc(-c4ccccc4OC)c3=O)[C@H]1[C@@H](C(=O)NCc1ccccn1)[C@@H]2CO	12[16.7 µM]
47	COC(=O)c1cc2c(c3c4ccccc4n(S(=O)(=O)c4cccc(C)c4)c13)C(=O)N(C)C2	9
48	C[C@H](CO)N1C[C@H](C)[C@H](CN(C)C(=O)[C@H]2CCCN2C)OCc2ccccc2-c2ccccc2C1=O	9[16.7 µM]
49	CC(=O)N1[C@@H]2c3ccc(C4=CCCCC4)c(=O)n3C[C@H]1[C@H](CO)[C@H]2C(=O)N[C@H](C)c1ccccc1	8[16.7 µM]
50	COCc1cc(N2CCN(C(=O)OC(C)(C)C)C[C@@H]2C)ccc1N1C[C@@H](C)O[C@@H](C)C1	2
51	C[C@@H]1CN([C@@H](C)CO)S(=O)(=O)c2ccc(-c3ccc(F)cc3)cc2O[C@@H]1CN(C)C(=O)C1CCC1	-19[16.7 µM]
52	O=C(C[C@H]1CC[C@H]2[C@@H](COC[C@H](O)CN2CC2CCOCC2)O1)NCc1ccc(Cl)cc1	-2[16.7 µM]
53	Cc1noc(C)c1S(=O)(=O)Nc1ccc2c(c1)CC(=O)N([C@@H](C)CO)C[C@H](C)[C@@H](CN(C)C(=O)Nc1ccccc1)O2	1[16.7 µM]
54	C[C@@H]1CN([C@H](C)CO)C(=O)c2cc(NS(=O)(=O)c3ccc(Cl)cc3)ccc2O[C@@H]1CN(C)CC1CC1	11[16.7 µM]
55	CO[C@@H]1CC[C@@H]2CCOc3ccc(C#N)cc3C(=O)N(C)C[C@H](C)C(=O)N(C)C[C@@H]1O2	-17[16.7 µM]
56	C[C@@H](NC(=O)C[C@H]1CC[C@H]2[C@@H](COc3ccc(NS(=O)(=O)c4ccc(Cl)cc4)cc3C(=O)N2C)O1)c1ccccc1	-29[16.7 µM]
57	C[C@H](C(=O)N(C)C[C@H]1OCc2ccccc2-c2ccccc2C(=O)N([C@@H](C)CO)C[C@@H]1C)c1ccccc1	-3[16.7 µM]
58	C[C@@H]1CN([C@H](C)CO)C(=O)c2c(c3ccccc3n2C)-c2ccccc2CO[C@@H]1CN(C)Cc1cccc(C(=O)O)c1	-1[16.7 µM]
59	Cc1cc(C)c(S(=O)(=O)N2C[C@H]3CON(C)[C@H]3C[C@H]2c2ccc(-n3ccnc3)cc2)c(C)c1	-18
60	O=C(C[C@H]1CC[C@H]2[C@@H](COC[C@@H](O)CN2Cc2cccc(Cl)c2)O1)NCC1CCCCC1	24[16.7 µM]
61	CN1c2ccc(C3=CCCCC3)cc2[C@H]2[C@H](CCN2C(=O)C2CCC2)[C@@H]1CO	33[16.7 µM]
62	O=C(C[C@@H]1CC[C@@H]2[C@H](COC[C@H](O)CN2C(=O)c2cnccn2)O1)N1CCN(c2ccccc2)CC1	-7[16.7 µM]
63	COc1cccc(C2NC(=S)N(Cc3ccccc3)C(C)=C2C(C)=O)c1 (stereo not given)	-10
64	CCS(=O)(=O)N(C)C[C@@H]1OCc2ccccc2-c2c(n(C)c3ccccc23)C(=O)N([C@H](C)CO)C[C@@H]1C	25
65	COC(=O)[C@@H]1[C@@H](CO)[C@@H]2Cn3c(ccc(C4=CCCCC4)c3=O)[C@@H]2N1Cc1cccnc1	-25[16.7 µM]
66	C[C@@H]1CCCCO[C@H](CN(C)CC2CC2)[C@H](C)CN([C@@H](C)CO)C(=O)c2cc(NC(=O)Cc3ccccc3)ccc2O1	18[16.7 µM]
67	Cc1noc(C)c1S(=O)(=O)N(C)C[C@@H]1Oc2ccc(NS(=O)(=O)c3ccc(F)cc3)cc2C(=O)N([C@H](C)CO)C[C@@H]1C	16[16.7 µM]
68	CO[C@H]1CN(C)C(=O)c2ccc(NC(=O)C3CCC3)cc2OC[C@@H](C)N(C(=O)CN(C)C)C[C@H]1C	1[16.7 µM]
69	COc1ccc(NC(=O)Nc2cccc3c2O[C@@H](CN(C)Cc2ccc4c(c2)OCO4)[C@H](C)CN([C@H](C)CO)C3=O)cc1	-8[16.7 µM]
70	C[C@@H]1CCCCO[C@H](CN(C)C(=O)C2CCCCC2)[C@@H](C)CN([C@@H](C)CO)C(=O)c2cc(N(C)C)ccc2O1	6[16.7 µM]
71	COc1cccc(NC(=O)Nc2ccc3c(c2)C(=O)N(C)[C@@H]2CC[C@H](CC(=O)NCCc4ccccc4)O[C@@H]2CO3)c1	30[16.7 µM]
72	O=C(N[C@@H]1CC[C@@H](CCNS(=O)(=O)c2ccc(Cl)cc2)O[C@H]1CO)c1ccccn1	-2[16.7 µM]
73	COc1ccc2c3c(n(C)c2c1)[C@@H](CO)N(C(C)=O)CC31CCN(C(=O)C2CC2)CC1	3[16.7 µM]
74	CO[C@H]1CN(C)C(=O)c2ccc(NC(=O)c3cnccn3)cc2OC[C@H](C)N(CCc2ccccc2)C[C@@H]1C	4[16.7 µM]
75	O=S(=O)(NC[C@H]1CC[C@@H]2[C@@H](CN2Cc2cccc(-c3ccccn3)c2)O1)c1ccccc1	-5[16.7 µM]
76	COc1cccc(CN2CC3(C2)CN(C(=O)Nc2ccc(F)cc2)[C@@H](CO)c2c3c3ccc(OC)cc3n2C)c1	-13[16.7 µM]

# Bioassay records from PubChem BioAssay.
